Source: PubChem BioAssay
Sa RN4220 lethal: growth inhibition of S. aureus RN4220, primary screen, OD600. actives 0.33% (n = 330,000). 16 h. AID 1259311, 2017. inhibition, % (no concentration beside the values);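 active means z-score of -3 or lower and OD600 up to 0.18 on both plates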;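 further: plate controls were untreated cells for no effect and reference antibiotic for full effect; stock transfer was 100 nL into about 80 µL; one replicate is shown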
BJeLR viability: MLPCN primary cell-based screen for lethality selective to Ras in HRASV12 cells; BJeLR (HRASV12) viability, CellTiter-Glo ATP luminescence, 48 h; reference of the scale not given here; inhibition, % (no concentration beside the values); actives 0.17% (n = 300,000); AID 1554, 2009;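 active means replicate mean above 50%; inconclusive means above 50% but judged a plate artefact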;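 further: 50 nL library stock added to about 25 µL; numbers are from one replicate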
Sa ugtP lethal: growth inhibition of ugtP-null S. aureus, primary screen, RN4220 ugtP deletion, OD600 | 16 h; some inactives read as strong as hits | growth inhibition, % (concentration not given with the values) | actives 0.54% (n = 330,000);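 active means z-score under -3 and OD600 up to 0.15 on both plates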;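 further: plate controls were untreated wells for no effect and antibiotic for full effect; wells of about 80 µL received 100 nL stock; the first replicate is given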
Bead autofluor: flagged as autofluorescent in microsphere protease counterscreen | actives 3.1% (n = 360,000) | compound autofluorescence counterscreen, microsphere flow cytometry; stronger effect = higher value | AID 624483 | fluorescence intensity (test concentration not listed);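 active means at least 3 SD above the mean of all compounds, about 16000 in these data; inconclusive means too few beads counted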;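 further: 100 nL of 1 mM stock went into each well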
Mtb hypoxia rep: PubChem AID 1159583 | M. tuberculosis hypoxia-regulated fluorescent reporter, fluorescence | fluorescence inhibition, % (test concentration not listed) | actives 0.1% (n = 300,000);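 active means 35 to 45% if threefold the growth effect, above 45% if 1.5-fold the growth effect; inactive means the rest, general growth blockers included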;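 further: wells of about 50 µL received 100 nL stock; 0% = vehicle wells and 100% = reference inhibitor wells; whole bacteria with a GFP reporter of the hypoxia response; strong numbers were not always called active; many hits fall short of the cut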
PrP UTR inh: inhibition of PrP 5' UTR reporter expression | cell-based PrP 5' UTR mRNA reporter, plate reader | inhibition, % (test concentration not listed) | actives 0.35% (n = 340,000);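 active means every replicate at 50% or more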;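 further: 0 = median of the neutral control wells; tested in H4 reporter cells; numbers are from one replicate; inactives centre near -14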
Mtb hypoxia rep growth: further read-out of Mtb hypoxia rep, marked with its call; growth inhibition, %; measured here: M. tuberculosis growth (absorbance);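 0% = vehicle and 100% = reference antibiotic; read after six days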
Numbers without * were called inactive; ? = inconclusive; . = not tested or not shown.

Sequence of screens – Mtb hypoxia rep	Sa RN4220 lethal	Mtb hypoxia rep growth	Sa ugtP lethal	BJeLR viability	Bead autofluor	PrP UTR inh
- O=C(Cc1ccccc1)Oc1ccc(N2C(=O)CCC2=O)cc1
  .	1.8	.	4	5	4816	-14
- CC(=NNC(=O)c1cc(C)nc2ccccc12)c1ccc(N2CCOCC2)cc1
  5	1.8	-3	0	.	3770	-6
- Cc1ccccc1CN1[C@@H](CC2CCCCC2)COCCS1(=O)=O
  .	.	.	.	-3	2815	1
- Cc1c(O)ccc(/C=N/Nc2nc(-c3cccnc3)nc3ccccc23)c1O
  .	.	.	.	16	3960	-33
- CC(=O)c1cnc2c(-c3ccccc3)cnn2c1C
  18	11	10	0	-13	3823	-39
- CCN(CC)c1ccc(/C=C/c2cc(-c3ccccc3)c3ccccc3n2)cc1
  7	0.5	-5	25	3	6677	-27
- O=c1c2ccccc2c(C=NCCc2ccccc2)c(O)n1Cc1ccccc1
  .	-2.9	.	-15	0	2388	-5
- CC/C(=N\NC(=O)COc1ccc(Br)cc1)c1ccc(OC)c(OC)c1
  .	.	.	.	-6	3838	-2
- NS(=O)(=O)c1ccc(CCNC(=O)COC(=O)c2nc(Cl)ccc2Cl)cc1
  -8	-1.6	10	-3	.	3870	8
- CCC1CC(=O)CCN1S(=O)(=O)c1ccc(C)cc1 (stereo not given)
  -1	3.2	0	0	.	3937	42
- CC(=O)Nc1ccccc1C(=O)C(=O)Nc1cccc(C(=O)NCc2ccc(C)cc2)c1
  2	3.4	3	-2	-6	.	.
- CCN1CCN(CCC(=O)Nc2ccc(Br)c(C)c2)CC1
  -14	1.2	-1	0	8	4653	1
- C/C=C/c1cc(CN2CCN(c3ccccc3)CC2)c(O)c(OC)c1
  2	-0.6	12	4	6	4648	-23
- Cc1ccc(-c2cc(C(F)(F)F)c(C#N)c(=O)[nH]2)cc1
  3	20	3	6	-12	2420	-12
- O=C(NCC(c1ccco1)N1CCN(c2ccccc2)CC1)OCc1ccccc1 (stereo not given)
  3	0.1	-3	8	8	2683	-19
- N=C(N)SCc1cccc2ccccc12
  -7	-5.0	-2	-25	8	3243	-28
- O=C(CCn1c(=O)[nH]c2ccsc2c1=O)N1CCc2ccccc2C1
  2	-1.8	3	-2	1	3414	-8
- CCN1CCN(C(c2ccccc2OC)c2nnnn2C2CCCCC2)CC1 (stereo not given)
  .	8.0	.	6	18	3982	-6
- Cc1sc2nc(CSC(C)C(=O)Nc3cc(S(C)(=O)=O)ccc3Cl)[nH]c(=O)c2c1C (stereo not given)
  -8	-1.2	2	-1	1	?	3
- NC(=O)CSc1nnc(-c2ccc(S(=O)(=O)N3CCOCC3)cc2)n1Cc1ccccc1
  4	1.6	-4	5	10	8122	-18
- CCc1nc(SCC(=O)Nc2nnc(CC)s2)c2c(C)c(C)sc2n1
  3	4.5	5	-10	-12	11497	-17
- Cc1ccccc1OCC(O)CN1CCN(C)CC1 (stereo not given)
  -5	-1.7	-3	2	-13	2848	-4
- O=C(CSCC(=O)OCC(=O)c1ccc(Br)cc1)Nc1ccc(Br)cc1
  7	1.2	21	-2	-4	4675	-6
- CC(C)(C)n1nc2c(c1NC(=O)c1ccc(S(=O)(=O)N3CCCC3)cc1)CS(=O)C2 (stereo not given)
  .	3.0	.	13	16	4075	-15
- CCCCN(C(=O)c1cc(-c2ccc(F)cc2)nc2ccccc12)c1c(N)n(CCCC)c(=O)[nH]c1=O
  0	7.4	-4	3	.	?	-27
- CC(=O)Cn1nnc2sc(-c3ccccc3)cc2c1=O
  0	7.3	3	8	9	4181	-71
- COc1ccccc1C(=O)Nc1nc(-c2cccs2)c(NC(C)=O)s1
  11	5.1	9	1	-8	3908	-75
- O=[N+]([O-])c1ccccc1OCCN1CCOCC1
  11	4.4	7	7	-11	3307	-50
- CCN(CC)c1ccc(C=NNC(=O)c2ccccn2)cc1
  5	1.7	14	8	.	.	.
- O=C(COc1ccc2c3c(c(=O)oc2c1)CCCC3)NCC(O)c1ccccc1 (stereo not given)
  -9	-3.3	4	-6	10	4949	6
- COc1ccc(C2=NN(C(=O)CSc3nc(=O)n4ccc(C)cc4n3)C(c3ccc(C)cc3)C2)cc1 (stereo not given)
  -5	-2.2	-8	2	-11	4004	-15
- Cc1nc2c(C)cccn2c(=O)c1NC(=O)c1ccc(Br)o1
  -1	1.0	-2	1	3	.	-8
- O/C(=C\Sc1nnc(Cc2ccccc2)o1)c1ccc(Br)cc1
  6	4.8	-1	-3	17	4486	-2
- Cc1ccc(-c2nc(C=Nc3cccc(C)c3)c(O)o2)cc1
  18	5.8	2	4	-2	3268	4
- Cc1ccc(CN2C(=O)CCC2C(=O)NCCCN2CCCCC2C)cc1 (stereo not given)
  8	3.8	8	6	-11	4473	-11
- CCN1CCN(c2ccc(S(=O)(=O)N3CCOCC3)cc2NC(=O)CCC(C)C)CC1
  6	0.0	-5	-1	-10	5057	-8
- O=C(CN1CCN(C(=O)N2CCCCC2)CC1)Nc1ccc(F)cc1
  8	9.4	7	-3	-8	10567	-12
- CCOC(=O)c1ccc(-c2ccc(C=O)o2)cc1
  6	3.5	8	1	-3	3801	-99
- NS(=O)(=O)c1ccc(-n2nncc2C23CC4CC(CC(C4)C2)C3)cc1
  5	6.2	7	-4	7	12392	6
- CN(C1CCCCC1)S(=O)(=O)c1cccc2nsnc12
  14	7.4	-2	-6	-6	5431	-12
- CCCCN(C(=O)c1ccc(Cl)cc1)C1CC2CCC(C1)N2C (stereo not given)
  9	4.5	6	12	-5	4130	72*
- NC(=O)CC(c1ccccc1)c1ccco1 (stereo not given)
  4	6.8	8	8	2	3823	-27
- O=C(Nc1ccc(Cl)c(S(=O)(=O)N2CCOCC2)c1)C1CCCC1
  3	2.1	-5	0	.	4157	-9
- O=C(Cn1c(=O)n(Cc2ccccc2)c(=O)c2cc(Cl)ccc21)NCC1CCCO1 (stereo not given)
  5	3.9	-7	8	-6	4645	5
- CCC/C(O)=C1\C(=O)CCCC1=NC(C)C(=O)O (stereo not given)
  1	-3.3	-4	8	3	7850	-17
- CN(C)CCN=Cc1c(O)n(-c2cccc(C(F)(F)F)c2)c(=O)[nH]c1=O
  2	3.0	10	3	16	10756	3
- O=C(c1cnc2n(c1=O)CCS2)N(c1ccccc1)C1CCCCC1
  5	0.7	3	3	15	3386	-13
- COc1cc(CNCCO)ccc1OCCc1ccccc1
  -8	-2.1	2	-2	-2	3779	-22
- COc1ccc2cc(C3CC(c4cccs4)=NN3C(C)=O)c(Cl)nc2c1 (stereo not given)
  6	6.1	13	2	-5	5575	-4
- O/N=C\c1ccc2noc(-c3ccc(Cl)cc3)c2c1
  .	.	.	.	-2	3115	-5
- CCS(=O)(=O)c1ccc(-c2cccc(NC(=O)c3ccc(Br)o3)c2)nn1
  -4	-4.6	7	-4	0	5645	-11
- CCCCn1c(SCC(=O)NNC(=O)c2ccccc2)n[nH]c1=O
  8	1.4	2	1	.	5597	-19
- CP(=O)(O)CCCN
  12	5.6	8	11	0	5312	-8
- CC1(C)C(C=C(Cl)Cl)C1C(=O)NC(O)C(=O)c1ccccc1 (stereo not given)
  4	0.3	1	6	-6	3774	-16
- O=P(Nc1c(Cl)cccc1Cl)(c1ccccc1)c1nc2c(s1)CCCC2 (stereo not given)
  -5	-6.0	2	-7	-5	23723*	-2
- C(=C\c1ccccc1)/CN1CCN(c2ncnc3c2oc2ccccc23)CC1
  4	7.0	3	-18	2	17552*	6
- O=C(NN=Cc1cn(-c2ccccc2)nc1-c1ccc2c(c1)OCCO2)c1ccncc1
  -4	1.8	-2	8	.	.	.
- CCCn1c(N)c(N(CCOC)C(=O)c2cccc(F)c2)c(=O)[nH]c1=O
  -5	-0.8	4	11	-3	5682	-15
- Cc1cc(C)c2nc(N(CCN(C)C)C(=O)c3ccc(S(=O)(=O)N(C)CC4CCCO4)cc3)sc2c1 (stereo not given)
  6	-1.2	13	5	0	?	-6
- O=C(NCCOC(=O)c1c(F)cccc1Cl)c1c(F)cccc1Cl
  1	3.7	-3	4	2	3938	-11

Four entries picked at random from those above, as already listed:
Sequence of screens – Mtb hypoxia rep	Sa RN4220 lethal	Mtb hypoxia rep growth	Sa ugtP lethal	BJeLR viability	Bead autofluor	PrP UTR inh
- Cc1c(O)ccc(/C=N/Nc2nc(-c3cccnc3)nc3ccccc23)c1O
  .	.	.	.	16	3960	-33
- CCN(CC)c1ccc(C=NNC(=O)c2ccccn2)cc1
  5	1.7	14	8	.	.	.
- CCS(=O)(=O)c1ccc(-c2cccc(NC(=O)c3ccc(Br)o3)c2)nn1
  -4	-4.6	7	-4	0	5645	-11
- CCC/C(O)=C1\C(=O)CCCC1=NC(C)C(=O)O (stereo not given)
  1	-3.3	-4	8	3	7850	-17

Another view of 4 compounds above:
C(=C\c1ccccc1)/CN1CCN(c2ncnc3c2oc2ccccc23)CC1
  Mtb hypoxia rep: 4	Sa RN4220 lethal: 7.0	Mtb hypoxia rep growth: 3	Sa ugtP lethal: -18	BJeLR viability: 2	Bead autofluor: 17552*	PrP UTR inh: 6

O=C(Cn1c(=O)n(Cc2ccccc2)c(=O)c2cc(Cl)ccc21)NCC1CCCO1 (stereo not given)
  Mtb hypoxia rep: 5	Sa RN4220 lethal: 3.9	Mtb hypoxia rep growth: -7	Sa ugtP lethal: 8	BJeLR viability: -6	Bead autofluor: 4645	PrP UTR inh: 5

O=C(NN=Cc1cn(-c2ccccc2)nc1-c1ccc2c(c1)OCCO2)c1ccncc1
  Mtb hypoxia rep: -4	Sa RN4220 lethal: 1.8	Mtb hypoxia rep growth: -2	Sa ugtP lethal: 8	BJeLR viability: .	Bead autofluor: .	PrP UTR inh: .

CC1(C)C(C=C(Cl)Cl)C1C(=O)NC(O)C(=O)c1ccccc1 (stereo not given)
  Mtb hypoxia rep: 4	Sa RN4220 lethal: 0.3	Mtb hypoxia rep growth: 1	Sa ugtP lethal: 6	BJeLR viability: -6	Bead autofluor: 3774	PrP UTR inh: -16

The results go on:
Sequence of screens – Mtb hypoxia rep	Sa RN4220 lethal	Mtb hypoxia rep growth	Sa ugtP lethal	BJeLR viability	Bead autofluor	PrP UTR inh
- Cc1cc(/C=N/N2CCN(C)CC2)c(C)n1-c1ccccc1F
  .	.	.	.	5	2025	6
- CN(Cc1ccc(F)cc1)Cc1nc(CCc2ccccc2)no1
  7	7.7	2	4	-5	3329	-8
- Cc1cc(S(=O)(=O)N2CCCCC2CCNC(=O)C(=O)NC2CC2)ccc1F (stereo not given)
  5	3.3	-4	1	-6	6532	5
- CCCC(=O)Nc1sc2c(c1C(=O)OCC)CC(C)(C)OC2
  -10	10	5	6	-4	4422	-14
- CSc1nnc(C)c(=O)n1COC(=O)c1cc(Cl)ccc1[N+](=O)[O-]
  -2	4.3	0	-2	-9	5563	-35
- CN1C(C(=O)NCc2ccc(OC(F)(F)F)cc2)CC2Cn3c(nc4cc(Cl)c(Cl)cc43)C21 (stereo not given)
  -2	-4.4	4	7	10	4238	-6
- Cc1ccc(Cn2ccnc2SCC(=O)NC2CCCC2)cc1
  7	2.6	6	3	-9	5533	-16
- C=CCN(Cc1ccc(OC)c(OC)c1)C(=O)c1cc2cc(F)ccc2[nH]1
  -2	0.1	-9	-10	2	3043	-24
- Cc1cccc(N2CCN(C(=O)/C=C/c3cccs3)CC2C)c1 (stereo not given)
  0	7.4	4	5	24	4097	-4
- CCC(=O)Nc1ccc2c(c1)nc1n2CCN(CCOC)C1
  6	4.3	7	7	5	3052	-9
- O=C(/C=C/c1cccs1)Nc1ccc(N2CCOCC2)c(S(=O)(=O)Nc2ccccc2Cl)c1
  .	.	.	.	-2	10948	-48
- Clc1ncccc1-c1nnn(-c2ccccc2)n1
  -1	14	-5	4	18	4151	-5
- CC(=O)SC(C[N+](=O)[O-])c1cn(C(C)=O)c2ccccc12 (stereo not given)
  .	.	.	.	39	2376	-27
- COc1ccc(C(=O)Oc2cc(C)[nH]c(=O)c2[N+](=O)[O-])c(OC)c1
  7	8.1	3	-5	1	4105	-17
